Screening results from PubChem.
SARS PLpro yeast = inhibitors of SARS-CoV papain-like protease in yeast; S. cerevisiae expressing SARS-CoV PLpro, growth rescue; control for the full effect not named in the record; Potency, µM (highest dose often 32.9 µM), inactives show at the top dose activity, positive = growth rescue; 0.19% of 330,000 active; active means well fitted rising curve with a large enough effect; inconclusive means small, poorly fitted or top-dose-only effect; inactive means no such curve, though single readings can be large or run the other way; note: 0% is about no effect; nearly all actives have a fitted effect of over 55% in size; growth read by luminescence after 48 h
NS1 inh = inhibitors of influenza NS1 protein function. S. cerevisiae slowed by influenza A NS1, growth recovery by OD600. Potency, µM (series often up to 46.1 µM), without a hit: at the top dose activity, positive = more growth. 0.4% of 270,000 active; active means well fitted rising curve with a large enough effect; inconclusive means small, poorly fitted or top-dose-only effect; inactive means no such curve, though single readings can be large or run the other way; note: nearly all actives have a fitted effect of over 50% in size
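Read-out: OD600 growth recovery of NS1-expressing budding yeast. Cells grown overnight at 30C in -URA glucose medium, washed, resuspended and diluted 1:100 in 2% galactose assay medium, pH 6.0. Same strain lacking NS1 served as positive control.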
Cruzain inh noDet = cruzain (T. cruzi) inhibition without detergent; P25779; purified cruzain, Z-FR-AMC fluorescence, no detergent; Potency, µM, inactives show max response, negative = inhibition, actives largely listed as inhibitors; 2.3% of 200,000 active; AID 1476;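 note: plate controls were enzyme without inhibitor for no effect and buffer without enzyme for full effect; nearly all actives have a fitted effect of over 40% in size; top concentration of the series not given in the record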
Target sequence (P25779 123-467 limits assumed): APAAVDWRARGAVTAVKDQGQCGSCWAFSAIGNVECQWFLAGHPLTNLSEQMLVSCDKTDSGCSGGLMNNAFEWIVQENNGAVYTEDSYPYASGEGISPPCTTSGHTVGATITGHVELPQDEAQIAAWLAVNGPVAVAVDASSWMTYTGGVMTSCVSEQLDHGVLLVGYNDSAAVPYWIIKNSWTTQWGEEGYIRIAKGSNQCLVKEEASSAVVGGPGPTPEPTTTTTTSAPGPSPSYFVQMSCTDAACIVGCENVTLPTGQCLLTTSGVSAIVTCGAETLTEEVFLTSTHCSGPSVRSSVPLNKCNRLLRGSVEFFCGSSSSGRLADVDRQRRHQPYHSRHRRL
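Purified cruzain at 1.5 nM, pre-incubated 15 min with compound at room temperature in 100 mM sodium acetate pH 5.5, 5 mM DTT, 0.00005% Triton X-100. Reaction started with 2 uM Z-FR-AMC; AMC fluorescence increase over 60 s gives rate.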
Cruzain inh Det = blocks cruzain activity in presence of Triton detergent | 0.43% of 200,000 active | Potency, µM, without a hit: max response, negative = inhibition, usual class: inhibitors | P25779 | purified cruzain, Z-FR-AMC fluorescence, 0.01% Triton | AID 1478;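 note: plate controls were neutral wells for no effect and buffer without enzyme for full effect; nearly all actives have a fitted effect of over 40% in size; top concentration of the series not given in the record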
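Cruzain (1.5 nM) preincubated 15 min at RT with compound in 100 mM sodium acetate pH 5.5, 5 mM DTT, 0.01% Triton X-100. Reaction started with 2 uM Z-FR-AMC; AMC fluorescence (ex 360/em 450 nm) change over 60 s gave rate.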
RE007 growth inh = less growth of the S. pombe RE007 Vpr strain; S. pombe RE007 Vpr strain, BacTiter-Glo ATP luminescence, 24 h; control for the full effect not named in the record; Potency, µM (series often up to 92.2 µM), inactives show at the highest dose activity change, negative = less growth; 0.21% of 360,000 active; AID 651644; active = well fitted falling curve with a large enough effect; inconclusive = small, poorly fitted or top-dose-only effect; inactive = no such curve, though single readings can be large or run the other way;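 note: % is set by controls: 0 for no effect and ±100 for the full control effect; nearly all actives have a fitted effect of over 50% in size; the assay follows cell death caused by Vpr and the record does not say whether a fall means rescue or toxicity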
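Fission yeast strain RE007, carrying one chromosomally integrated HIV-1 vpr copy, was seeded at OD 0.01 in PMG+AL medium with 23 nL pinned compound. After 24 h at 30 °C and 99% humidity, viability was read by BacTiter-Glo luminescence.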
StopGo reporter = lowers the luciferase signal of an FMDV 2A StopGo reporter; human cells with a luciferase reporter of 2A StopGo recoding; control for the full effect not named in the record; Potency, µM (doses to about 57.9 µM), for inactives: at the highest dose signal change, negative = less light; 1.2% of 410,000 active; active = well fitted falling curve with a large enough effect; inconclusive = small, poorly fitted or top-dose-only effect; inactive = no such curve, though single readings can be large or run the other way; tested in HEK293T cells; note: % is set by controls: 0 for no effect and ±100 for the full control effect; nearly all actives have a fitted effect of over 45% in size; luciferase light after 4 h
LASV entry inh = Lassa virus entry inhibition | Lassa virus pseudotype entry inhibition, cell reporter; control for the full effect not named in the record | Potency, µM (top dose mostly 37.9 µM), inactives show at the top dose activity change, negative = inhibition, most hits filed as inhibitors | 1.2% of 300,000 active | AID 540256; active means well fitted inhibition curve with a large enough effect; inconclusive means small, poorly fitted or top-dose-only effect, or effect the other way; inactive means flat fitted curve, though single readings scatter; tested in HEK293 cells; note: % is set by controls: 0 for no effect and ±100 for the full control effect; nearly all actives have a fitted effect of over 50% in size; luciferase read-out
MARV entry inh = blocks Marburg virus binding to or entry into cells | Potency, µM (titrated, usually from 37.8 µM), for inactives: at the top dose activity change, negative = inhibition, usual class: inhibitors | Marburg virus pseudotyped entry inhibition, cell reporter; control for the full effect not named in the record; about a third of the inactives were read at about 46 µM | 1.8% of 300,000 active; active = well fitted inhibition curve with a large enough effect; inconclusive = small, poorly fitted or top-dose-only effect, or effect the other way; inactive = flat fitted curve, though single readings scatter; tested in HEK293 cells; about a fifth of its hits are not listed in these tables; note: % is set by controls: 0 for no effect and ±100 for the full control effect; luciferase read-out
Starred values were filed as active, the others as inactive; u = inconclusive; x = no result given; & = joins results of further samples; [ ] = remark or other dose. Unless noted, calls come from the whole dose curve; as a rule, active = well fitted curve in the direction sought with a large enough effect; inconclusive = small, poorly fitted or top-dose-only effect, or another doubt; inactive = no such curve, though single readings can be large; an effect the other way counts as inactive or inconclusive. Potency is the fitted concentration of half-maximal effect.

SMILES	SARS PLpro yeast	NS1 inh	Cruzain inh noDet	Cruzain inh Det	RE007 growth inh	StopGo reporter	LASV entry inh	MARV entry inh
Cn1nnnc1SCC(=O)N1CCCc2ccccc21	-5.3%	4.4%	-7.7%	-1.3%	-0.4%	-12.1%	-9.2%	-15.8%
O=C(NCCc1ccccn1)c1ccc(S(=O)(=O)N2CCCCCC2)cc1	12.5%	-1.0%	2.2%	-0.4%	-4.0%	24.0%	0.2%	-12.9%
Nc1ncc([N+](=O)[O-])c(Oc2ccccc2F)n1	0.8%	4.2%	x	x	-4.8%	u	x	x
CCOc1ccccc1N(C(=O)Nc1ccc(Cl)cc1)C1=NCCS1	-1.2%	-1.2%	1.5%	-3.5%	-21.5%	-9.1%	-9.5%[46.1 µM]	-1.0%[46.1 µM]
CC(C)(C)c1ccc(NC(=O)CCNC(=O)c2ccco2)cc1	-3.5%	-9.2%	x	x	2.8%	5.6%	11.5%	11.9%
COC(=O)c1ccccc1NC(=O)CN1CCN(Cc2ccccc2)CC1	-2.3%	-5.0%	x	x	3.2%	-24.0%	x	4.1%
CCc1nc2ccccc2c(=O)n1NC(=O)c1c(O)c2ccccc2[nH]c1=O	5.9%	1.58µM*	u	1.7%	0.5%	-20.2%	1.6%	17.3%
CCCC(=O)Nc1sc(C)c(-c2ccc(C(C)CC)cc2)c1C#N (stereo unspecified)	-14.1%	u	7.94µM*	9.3%	7.9%	-16.6%	u	-25.3%
COc1ccc(CNC(=O)c2cc(=O)c3cc(C)c(C)cc3o2)cc1	-2.0%	0.6%	x	x	-3.7%	-15.0%	x	x
CC(=O)Nc1ccc(S(=O)(=O)N(C)CC(=O)OCC(=O)N2CC(C)OC(C)C2)cc1 (stereo unspecified)	6.4%	x	x	x	-2.8%	-25.4%	12.9%	9.6%[46.1 µM]
COc1cc(NS(=O)(=O)c2ccc(NC(=S)NC(=O)c3ccc(Br)cc3)cc2)ncn1	20.3%	-0.3%	x	x	0.4%	19.0%	x	x
COc1ccc(C(=O)Nc2ccc(Cn3ccnc3)cc2)cc1OC	1.2%	-0.2%	x	x	-2.4%	18.6%	15.9%[46.1 µM]	-0.5%[46.1 µM]
COc1ccc(-c2nc(CS(=O)(=O)CC(=O)NC3CCC(C)CC3)c(C)o2)cc1 (stereo unspecified)	u	7.5%	x	x	0.3%	-17.3%	x	x
COc1ccc(Cl)cc1NC(=O)CN(C)S(=O)(=O)c1cccs1	-0.6%	-4.5%	x	x	3.7%	-2.2%	-24.0%	-10.0%[46.1 µM]
CCOC(=O)c1c[nH]c2c3c(ccc2c1=O)CCCC3	0.5%	4.0%	-15.6%	-4.8%	-4.9%	15.5%	1.2%	u
Cc1cccc(CS(=O)(=O)Cc2ccc(C(=O)NCCc3ccccc3)o2)c1	1.9%	-3.1%	-6.6%	0.4%	6.8%	-25.1%&-5.5%	u	x
C/C(N)=C(/C#N)C(=O)CSc1nnnn1-c1ccc(C)cc1C	-10.1%	1.2%	2.9%	-1.6%	19.3%	-27.8%	u	20.6%
CC(=O)OC1(c2ccc(C)cc2)CN2CCC1c1ccccc12 (stereo unspecified)	-1.1%	2.0%	3.5%	6.2%	33.5%	-20.1%	-0.2%	-22.6%
O=C(CCNC(=O)c1ccccc1Cl)Nc1ccc2c(c1)OCO2	6.3%	7.8%	2.8%	2.7%	7.3%	27.5%	-2.5%	-1.1%
COc1ccccc1CC(=O)Nc1cccc2c1CCCC2	29.7%	-2.5%	-3.5%	-0.2%	2.3%	-3.7%	0.5%	-13.9%
Cc1ccc(C(=O)Nc2ccccc2-c2ccccc2)cc1S(=O)(=O)Nc1cccc(C)c1C	10.3%	u	u	-2.1%	-15.3%	-6.7%	-42.2%	u
COc1ccc(-c2nc3cc(NC(=O)Cc4ccc(Cl)cc4)ccc3o2)cc1OC	x	x	u	-1.9%	x	-20.2%	u	x
O=C(CN1C(=O)CSc2ccc(S(=O)(=O)N3CCOCC3)cc21)NCc1ccc(F)cc1	4.8%	4.4%	x	x	4.2%	13.1%	-19.7%[46.1 µM]	u
COCc1nn2c(N)c(C#N)cnc2c1-c1ccccc1	-6.9%	5.9%	-2.9%	-3.6%	25.3%	-1.9%	1.7%	-7.2%
O=C(CSc1ccc(Cl)cc1)c1ccco1	-7.3%	u	-12.7%	-8.4%	-25.0%	18.7%	-31.1%	-2.5%
CN1/C(=C\C=C(/C#N)C(=O)Nc2ccc(Cl)cc2)C(C)(C)c2ccccc21	3.7%	9.7%	-10.8%	-5.5%	15.4%	-13.1%	19.6%	u
COc1cccc(N2CCN(C(=O)c3cccc(N4C(=O)NC5CC4(C)Oc4c(OC)cccc45)c3)CC2)c1 (stereo unspecified)	-1.6%	-6.7%	x	x	-2.8%	-8.6%	u	-6.4%[46.1 µM]
Cc1ccc(-c2cc(C(=O)NCc3ccco3)no2)cc1	-0.7%	u	-16.0%	5.2%	2.2%	27.7%	u	12.4%
Cc1[nH]c2ccc(OC(F)(F)F)cc2c1CCNCc1ccc(Cl)cc1	-3.9%	-5.6%	x	x	-6.6%	-16.7%	u	u
CCOC(=O)c1cnc(NCc2ccc(OC)cc2OC)c2ccccc12	x	x	u	-8.9%	x	8.4%	-14.6%[46.1 µM]	x
COC(=O)c1ccccc1NC(=O)NCCc1ccc(OC)c(OC)c1	-1.1%	-2.2%	x	x	23.4%	-17.4%	x	-15.9%[46.1 µM]
CCOc1ccccc1NC(=O)CN1C(=O)COc2ccc(C)cc21	-2.2%	-14.1%	x	x	-2.6%	-28.5%	u	u
CCC(=O)Nc1c(C)nn(-c2ccc(C)c(C)c2)c1C	28.2%	-10.5%	11.2%	-1.6%	-4.9%	7.8%	0.3%	9.1%
CCCC(c1nnnn1Cc1ccccc1)N1CCC(C(N)=O)CC1 (stereo unspecified)	9.9%	5.2%	6.2%	6.9%	0.6%	9.9%	-6.2%	11.2%[46.1 µM]
CCC(C)NC(=O)C1CCCCN1S(=O)(=O)c1ccc(F)cc1 (stereo unspecified)	-1.5%	-2.6%	10.1%	1.2%	-3.3%	x	8.0%	0.3%
CCOC(=O)c1cc2ccccc2nc1C	1.3%	-7.7%	14.0%	0.6%	-3.2%	-7.7%	6.2%	u
Clc1cccc(CN2C3=NCCCN3c3ccccc32)c1	1.3%	-1.4%	x	x	0.8%	-22.9%	x	x
O=C(CN1C(=O)c2ccccc2S1(=O)=O)NCc1c(F)cccc1F	2.1%	x	x	x	2.6%	55.5%[activator]	-0.2%	3.3%[46.1 µM]
COc1ccc2[nH]c(=O)c(CN(Cc3cccs3)C(=S)NCC3CCCO3)cc2c1 (stereo unspecified)	-0.8%	5.0%	x	x	-6.5%	-6.5%	x	x
Cc1ccc(CNC(=O)c2cnccn2)cc1	4.2%	2.9%	-16.2%	0.6%	32.5%	-10.6%	2.0%	u
Cc1ccnc(NC(=O)CCCc2ccccc2)c1	-4.6%	-9.0%	3.0%	-3.0%	x	29.7%	16.4%	u
Cc1ccsc1CN(C(=O)c1ccc(Br)cc1)C1CCS(=O)(=O)C1 (stereo unspecified)	x	x	-3.4%	-2.1%	x	-12.4%	u	19.2%[46.1 µM]
Cc1ccc(C(=O)NCCCNC(=O)Cc2ccc(Cl)cc2)cn1	5.2%	x	x	x	-20.8%	-9.9%	-4.8%	16.3%
Cn1ccnc1SCc1ccc(Cl)cc1Cl	-2.4%	-22.6%	x	x	12.6%	10.2%	0.7%[46.1 µM]	u
Cc1cc(C(=O)Nn2c(-c3ccc(Br)cc3)nc3ccccc3c2=O)ccc1[N+](=O)[O-]	-24.6%	17.5%	-17.2%	-4.4%	0.2%	u	-9.2%[46.1 µM]	u
CCN(CC)CC1C(=O)N(c2ccc(OC)cc2)C1c1ccccc1 (stereo unspecified)	0.7%	-1.9%	x	x	2.8%	40.3%[activator]	u	8.91µM*
CCNC(=S)Nc1cccc(Cl)c1C	2.9%	12.2%	2.9%	-4.0%	-9.1%	-17.2%	-4.3%	1.8%
Cc1cccc(N2CC(C(=O)Nc3ccccc3N3CCOCC3)CC2=O)c1C (stereo unspecified)	-1.1%	x	x	x	-6.2%	-26.1%	-9.7%	-13.7%
CCCCn1c(N)c(C(=O)OCC2CCCO2)c2nc3ccccc3nc21 (stereo unspecified)	-8.9%	-33.3%	u	u	2.7%	-27.6%	-19.6%	-8.5%
CCCCC(=O)N/N=C/c1cc([N+](=O)[O-])ccc1N1CCOCC1	-5.8%	3.3%	-15.1%	-7.5%	-9.9%	-21.2%	4.4%	u
COc1ccc(CNC(=O)c2sc3nc4n(c(=O)c3c2C)CCCCC4)cc1	x	x	0.8%	-2.4%	x	22.4µM*	-20.4%[46.1 µM]	x
CN(C)Cc1nc2c([nH]1)c(=O)n(C)c(=O)n2C	1.0%	1.3%	3.7%	-0.4%	6.4%	-10.0%	x	-0.6%
CCc1nnc2c(Nc3cc(OC)c(Cl)cc3OC)nc3ccccc3n12	x	x	2.3%	1.7%	x	-4.3%	20.5%[46.1 µM]	-7.3%[46.1 µM]
COc1ccc(-c2nn(-c3ccccc3)cc2C#N)cc1	0.6%	-7.9%	-7.7%	-3.4%	-9.4%	23.7%	5.0%	u
C=CCc1cccc(/C=N/c2nc3ccccc3n2CC)c1O	4.3%	8.2%	1.6%	-5.7%	-1.3%	-7.7%	28.2%	1.0%
CN(C)S(=O)(=O)N1CCN(C(=O)c2ccccc2Cl)CC1	-0.9%	-16.4%	-7.9%	2.3%	3.8%	x	11.2%	3.9%
CC(C)=CCC/C(C)=C/CN(CC(C)O)CC(C)O (stereo unspecified)	0.5%	-1.5%	-16.1%	1.2%	10.2%	-4.1%	3.6%	u
COc1cccc2sc(Nc3nnc(-c4cccs4)o3)nc12	-14.9%	-122.9%	4.0%	-2.2%	0.8%	4.6%	u	u
O=C(CN1CCN(S(=O)(=O)c2ccc(F)cc2)CC1)NCc1cccs1	1.6%	x	x	x	-0.3%	-2.4%	-25.3%	-5.3%[46.1 µM]

Not a hit list; about 4.7% have a hit in one of these screens.
